UUG fidelity = modulators of start codon recognition fidelity in yeast; S. cerevisiae UUG-firefly luciferase reporter, luminescence/redox ratio; actives 0.13% (n = 350,000); activity score, % at 18.7 µM;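 active = replicate mean at a twofold rise or more, about +100% in these data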;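 note: firefly luciferase made from a UUG start codon reports start codon fidelity; reporter light over untreated wells divided by growth signal over untreated wells; some hits fall short of that in this replicate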
PABP polyA inh = blocks human PABP binding to poly(A) RNA. fluorescence polarization. inhibition, % at 35 µM. actives 1% (n = 290,000). AID 2014;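 active = 50% or more with normal probe brightness, or confirmed in later tests; inconclusive = above 50% with abnormal brightness, or retests that disagree; inactive = below 50% or failed in later tests; about a fifth of its hits are not listed in these tables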;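 note: calls also rest on retests at 20 µM and on dose response follow-up; controls were probe without protein and protein plus probe with vehicle; some compounds called inactive have numbers as strong as hits; many hits fall short of the cut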
Target sequence (P11940 whole entry, looked up): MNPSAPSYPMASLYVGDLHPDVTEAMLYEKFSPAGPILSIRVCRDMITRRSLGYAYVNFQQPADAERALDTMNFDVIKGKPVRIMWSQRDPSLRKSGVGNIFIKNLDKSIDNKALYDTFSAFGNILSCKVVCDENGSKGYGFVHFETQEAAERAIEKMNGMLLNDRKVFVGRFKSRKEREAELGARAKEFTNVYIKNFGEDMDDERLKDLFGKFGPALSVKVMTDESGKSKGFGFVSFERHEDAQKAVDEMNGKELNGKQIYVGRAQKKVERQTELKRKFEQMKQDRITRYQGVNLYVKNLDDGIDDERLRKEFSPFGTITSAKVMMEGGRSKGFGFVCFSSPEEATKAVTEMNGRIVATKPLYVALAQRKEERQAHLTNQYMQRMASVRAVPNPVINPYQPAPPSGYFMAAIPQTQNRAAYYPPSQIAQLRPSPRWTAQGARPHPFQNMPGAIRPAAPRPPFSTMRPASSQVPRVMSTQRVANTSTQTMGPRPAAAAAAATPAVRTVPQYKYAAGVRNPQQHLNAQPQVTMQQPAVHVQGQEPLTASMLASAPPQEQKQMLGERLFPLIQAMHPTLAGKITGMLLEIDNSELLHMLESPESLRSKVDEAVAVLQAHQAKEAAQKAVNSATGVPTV
Rce1 inhib = inhibitors of yeast Ras-converting enzyme; yeast membranes, quenched prenylated peptide cleavage fluorescence; calls only; actives 0.27% (n = 290,000); AID 2563;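 active = fall in fluorescence gain of 50% or more versus controls, with final raw signal at or below 3038400; inconclusive = same 50% fall but final raw signal above 3038400; inactive = fall in fluorescence gain under 50%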;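 note: plate controls were neutral control wells for no effect and wells lacking membranes for full effect; tested at 10 µM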
MT1-MMP act inh = MT1-MMP (human) activation inhibition | P50281 | HT1080 RFP-PRO-GFP cells, GFP/RFP ratio fluorescence, overnight; percent of plate control window, DMSO zero | GFP/RFP ratio change, % at 20 µM | actives 0.061% (n = 360,000);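 active = GFP/RFP ratio change of at least 30% with cell ATP level not reduced by more than half and red fluorescence within 50% of control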; note: strong numbers were not always called active
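Test system: HT1080 cells expressing an RFP-PRO-GFP fluorescent reporter construct / Compound dosing: single-point 20 µM compound, 1% DMSO / Schedule: cells overnight before dosing, compound overnight, 37 °C, 5% CO2 / Evaluation: GFP/RFP fluorescence ratio / Control set: DMSO and RFP-L50D-GFP cell wells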
HIV Env fusion = HIV envelope-mediated fusion inhibition; HeLa-JRFL Env/CEM21 cell fusion, luciferase; inhibition, % at 12.3 µM; actives 1.1% (n = 360,000);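 active = mean replicate inhibition score of at least 50 and every replicate individually at or above 50; inconclusive = only one of the two criteria met; inactive = mean below 50 and not all replicates reaching 50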;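 note: 0% = plate neutral controls and 100% = maraviroc near 300 nM; one replicate is shown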
eIF4H FP inh = inhibitors of RNA binding by human eIF4H. actives 0.94% (n = 290,000). inhibition, % at 35 µM. eIF4H fluorescence polarization binding assay. Q15056;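 active = 50% or more with normal probe brightness, or confirmed in later tests; inconclusive = above 50% with abnormal brightness, or retests that disagree; inactive = below 50% or failed in later tests; about a fifth of its hits are not listed in these tables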;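 note: calls also rest on retests at 20 µM and on dose response follow-up; 0% = protein and probe with vehicle and 100% = probe without protein; strong numbers were not always called active; many hits fall short of the cut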
CSC inhib = cancer stem cell inhibition; cancer stem cell-like cells viability, luminescence; inhibition, % at 7.5 µM; actives 1.1% (n = 300,000); AID 2717;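 active = mean at 75% or more and at least half the replicates too; inconclusive = mean and replicates disagree; tested in HMLE shEcad cells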;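 note: 0% = median of negative and 100% = median of positive control wells; the first replicate is given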
eIF4H FP inh retest = recorded beside eIF4H FP inh, whose call it bears; inhibition, %; compound at 20 µM; confirmation average;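 mean of two retest wells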
PABP polyA inh retest = recorded beside PABP polyA inh, whose call it bears; inhibition, %; compound at 20 µM; confirmation repeats;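 mean of two retest wells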
MT1-MMP act inh RFP = recorded beside MT1-MMP act inh, whose call it bears; RFP signal change, %; measured here: RFP expression control read;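 0 = vehicle wells; hits needed this value within 50% of zero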
Starred values were filed as active, the others as inactive; i = inactive; ? = inconclusive; . = not tested or not shown; & = joins results of further samples.

Preview (2 entries):
SMILES	UUG fidelity	PABP polyA inh	Rce1 inhib	MT1-MMP act inh	MT1-MMP act inh RFP	HIV Env fusion	eIF4H FP inh	CSC inhib	others
CCOC(=O)N1CCC(NC(=O)c2cc3c(-c4ccccc4F)nn(C)c3s2)CC1	-15	-4	i	0	-11	.	4	3
CN(C)c1ccc(C=NC(CO)C(O)c2ccc([N+](=O)[O-])cc2)cc1 (centres undefined)	.	-6	i	1	4	8	5	-5

This part in full, repeating the preview:
SMILES	UUG fidelity	PABP polyA inh	Rce1 inhib	MT1-MMP act inh	MT1-MMP act inh RFP	HIV Env fusion	eIF4H FP inh	CSC inhib	others
CCOC(=O)N1CCC(NC(=O)c2cc3c(-c4ccccc4F)nn(C)c3s2)CC1	-15	-4	i	0	-11	.	4	3
CN(C)c1ccc(C=NC(CO)C(O)c2ccc([N+](=O)[O-])cc2)cc1 (centres undefined)	.	-6	i	1	4	8	5	-5
Cc1ccnc(N=Cc2nc(-c3ccccc3Br)oc2O)c1	.	-1	i	0	2	-7	-6	-11
COC(=O)/C=C/c1ccc(OC(=O)c2ccncc2)cc1	.	-5	i	11	3	-12	-12	12
Cc1cccc(-n2c(SCC(=O)O)nc3sc4c(c3c2=O)CCC4)c1	-11	1	i	2	2	-4	5	-9
CCN(CC)S(=O)(=O)c1ccc(NC(=O)C2c3ccccc3Oc3ccccc32)cc1	.	16	i	2	-13	-22	2	5
COc1ccc(C2=NOC(Cn3c(Cc4ccc(Cl)cc4)nc4c3c(=O)n(C)c(=O)n4C)C2)cc1 (centres undefined)	-5	-6	i	-6	-7	.	-7	-34
CCNC(=O)N(C)c1c(CC)nc2ccc(C(=O)Nc3cccc(OCC(=O)N(C)C)c3)cn12	-11	.	.	3	4	-2	.	.
Cc1nc(=S)n(-c2ccccc2)[nH]1	-17	2	i	4	6	.	-2	-2
O=c1[nH]c(/C=C/c2ccccc2)c([N+](=O)[O-])c(=O)[nH]1	-11	-6	i	-3	1	1	-10	7
CCCCCCCNC(=O)C1(CC2CC(c3ccc(Cl)cc3)=NO2)CCN(C(=O)c2cc(OCC)c(OCC)c(OCC)c2)CC1 (centres undefined)	-8	2	i	-4	-11	13	-15	2
C=CCNC(=O)c1ccccc1NC(=O)c1cccc2ccccc12	-19	6	i	3	2	-61	-10	-8
C#CCOCCOCCOCCNc1nc(N2CCN(C(=O)[C@H](CCCN=C(N)N)n3cc(C(N)[C@H](C)CC)nn3)CC2)nc(N2CCN(C(=O)[C@H](CCCN=C(N)N)n3cc(C(N)[C@@H](C)CC)nn3)CC2)n1 (some centres undefined)	48	.	.	-2	2	.	.	7
N[C@@H](Cc1ccc(O)cc1)C(=O)Nc1ccc2ccccc2c1	-19	.	.	0	1	-25	.	8
CC1(CCc2ccccc2)NC(=S)N(c2ccccc2)N1 (centres undefined)	.	4	i	0	2	-14	-5	70
CCc1ccc(-c2ccc3nnc(SCC(N)=O)n3n2)cc1	11	.	i	2	3	-1	.	-8
COc1cccc(C2CC(c3ccc(Cl)cc3Cl)n3nc(N)nc3N2)c1 (centres undefined)	-12	2	i	-1	1	21	-3	-24
Cc1cccc(C)c1N1C(=O)CC(N2CCN(S(=O)(=O)c3ccccc3F)CC2)C1=O (centres undefined)	-4	.	.	-6	1	.	.	0
CCCCc1ccc(NC(=S)Nc2ccc(Cl)c(S(=O)(=O)N(C)C)c2)cc1	.	-10	i	3	-1	20	0	24
C[C@H](CO)N1C[C@H](C)[C@H](CN(C)Cc2ccccc2)Oc2c(NC(=O)Nc3ccc(F)cc3)cccc2C1=O	-9&7	.	.	2	-3	-20	.	-6
CN(CCc1ccccc1)C(=O)c1ccc(NC(=O)Cc2ccc(NC(=O)C3CCCN(C(=O)C4CC4)C3)cc2)cc1 (centres undefined)	13	.	.	-1	-15	33	.	.
CCOc1ccccc1NC(=O)CCNC(=O)C1CCN(S(=O)(=O)c2ccccc2)CC1	2	.	.	1	1	-17	.	.
NC(=O)c1cc2n(n1)C(C(F)(F)F)CC(c1ccco1)N2 (centres undefined)	-26	-9	i	-6	2	.	13	-15
Cc1cccc(S(=O)(=O)N2CCC(CO)(Cc3ccccc3)CC2)c1	.	-9	i	-3	-3	22	-7	.
O=C(Nc1nc2ccc([N+](=O)[O-])cc2s1)c1ccco1	.	-2	i	.	.	-34	-18	-2
Cn1c(=O)n(CCc2ccccc2)c(=O)c2c1ncn2Cc1ccccc1	-14	-6	i	-3	-1	17	-9	.
Cc1cc(C)n(-c2nnc(C)n2N)n1	-14	11	i	2	3	.	-3	0
CCN(CC(=O)NCc1cccs1)C(=O)c1ccc(NS(=O)(=O)c2ccc(C(C)=O)cc2)cc1	.	.	i	-2	-6	-6	.	-10
CCOc1ccc(NC(=O)CN2CCN(CC(=O)Nc3cccc(F)c3)CC2)cc1	-2	-2	.	4	1	.	-6	-9
CCC(C)n1c(-c2ccco2)nc2nc3ccccc3nc21 (centres undefined)	.	101*	i	.	.	.	?	22	PABP polyA inh retest=53*
COc1ccc(-c2cc(C)no2)cc1S(=O)(=O)N1CCN(c2ccccc2F)CC1	-8	2	i	-3	-25	17	-10	8
COc1cc(SC)ccc1C(=O)Nc1ccc2c(c1)CCC2	-21	7	i	0	2	-190	-4	25
O=C(Cc1ccccc1)NN1C(=O)C2C3C=CC(C3)[C@@H]2C1=O (some centres undefined)	-24	-6	i	3	2	-16	1	2
O=C(COc1ccccc1[N+](=O)[O-])Nc1cccc(S(=O)(=O)N2CCCC2)c1	-8	.	.	2	-13	11	.	3
Cc1cccc(-c2noc(CN(C)C(=O)c3ccco3)n2)c1	-13	0	i	1	2	-4	5	-6
Cn1nccc1C(=O)c1ccc(Cl)cc1	-9	1	i	2	8	.	8	-18
COCCCNC(=O)CN1C(=O)c2cccc3cccc1c23	-1	-3	i	4	5	0	0	-17
CSc1ccccc1C(=O)C1CCCN(C(=O)NC(C)C)C1 (centres undefined)	15	-5	i	1	6	-6	6	-13
COCCCN1C(=O)C(CC(=O)NC2CC2)CC(C(=O)N(C(C)C)C(C)C)=C1C (centres undefined)	6	.	.	0	3	8	.	.
CCN(C(=O)COC(=O)CSc1ccc(C(N)=O)cc1[N+](=O)[O-])C1CCCCC1	4	4	i	-2	1	-8	5	-5
Cc1ccccc1Oc1nnc(-c2cccs2)c2ccccc12	.	3	.	71	72	-6	-6	.
CCOC(=O)C1(C)CCCN(C(=O)C(c2ccccc2)c2ccccc2)C1 (centres undefined)	-11	.	.	-2	-4	-52	.	.
CCCSC1=N/C(=C\c2ccc3c(c2)OCO3)C(=O)S1	.	4	i	1	7	45	-7	1
O=[N+]([O-])c1ccccc1/C=C/C=N/n1c(-c2ccc(Cl)cc2)n[nH]c1=S	-6	-2	i	4	3	.	12	-2
O=C(NC1CCCCC1)c1ccc(COc2ccccc2)o1	-2	.	i	-9	-3	-1	.	-9
CCOC(=O)CN1C(=O)/C(=C/c2cccc(Br)c2)Oc2ccccc21	-8	12	i	3	1	6	9	12
COc1ccc2nc(NC(=O)c3ccccc3[N+](=O)[O-])sc2c1	0	-2	i	-1	-4	-40	-13	7
Cn1c(=O)cc(OCC(=O)NCCC2=CCCCC2)c2ccccc21	.	21	i	1	5	2	-3	-16
COc1ccccc1NC(=S)NC1CCCCCCCCCCC1	-15	1	i	-8	-11	33	2	20
COc1ccc(OCc2nnc3n2N=C(c2ccc(C)cc2)CS3)cc1	-4	3	i	-1	-4	-30	-6	4
Cc1ccc(C(=O)NCC(=O)OCC(=O)NCCc2ccccc2)s1	.	-4	i	4	2	7	-4	-1
CCOC(=O)c1cc2occc2n1Cc1ccc(F)cc1	-15	-4	.	-3	2	-32	-2	1
CC(=O)Nc1ccc(S(=O)(=O)NCCC(=O)OC(C)C(=O)c2ccc(C)cc2)cc1 (centres undefined)	-32	0	i	1	-3	4	0	27
COC(=O)c1sc(N)c(C(=O)OC)c1COC(=O)C1CC(=O)N(Cc2ccco2)C1 (centres undefined)	-4	-1	i	-1	1	-15	7	2
O=C(c1cccc(F)c1)N1CCN(S(=O)(=O)Cc2ccccc2)CC1	-12	-8	i	3	2	-6	4	-20
CC(C)CCN(C(=O)Cc1ccccc1F)c1c(N)n(Cc2ccccc2)c(=O)[nH]c1=O	.	13	i	-4	-3	19	6	-15
COc1ccc(NC(=O)CSc2nccc(C)n2)cc1	-2	0	i	1	1	.	-3	7
COc1ccc(-c2ccc(OC(=O)NC3CCS(=O)(=O)C3)cc2)cc1 (centres undefined)	.	2	i	2	-1	-14	1	3
Cc1cccc(-c2nnc(SCC3CNC(=O)O3)n2-c2ccc(Cl)cc2)c1 (centres undefined)	.	1	i	-3	-3	8	0	-2
COc1ccc(C(C(C(=O)c2ccco2)N2CCOCC2)N2CCOCC2)cc1 (centres undefined)	-9	4	i	2	5	.	6	-2

Retrieved one by one from above, 2 records:
SMILES	UUG fidelity	PABP polyA inh	Rce1 inhib	MT1-MMP act inh	MT1-MMP act inh RFP	HIV Env fusion	eIF4H FP inh	CSC inhib	others
CCOC(=O)c1cc2occc2n1Cc1ccc(F)cc1	-15	-4	.	-3	2	-32	-2	1
Cc1ccc(C(=O)NCC(=O)OCC(=O)NCCc2ccccc2)s1	.	-4	i	4	2	7	-4	-1

Further compounds
SMILES	UUG fidelity	PABP polyA inh	Rce1 inhib	MT1-MMP act inh	MT1-MMP act inh RFP	HIV Env fusion	eIF4H FP inh	CSC inhib	others
CC(=O)c1cccc(NC(=O)CN(Cc2ccccc2)S(C)(=O)=O)c1	-10	-5	i	3	-5	.	5	-20
Cc1nc(-c2ccccc2O)n(S(=O)(=O)N(C)C)n1	-23	-10	i	-3	-5	-58	3	-6
CC(C)(C)C1CCC(OC(=O)CCC(=O)Nc2ccccc2)CC1 (centres undefined)	.	6	i	2	-1	.	-11	.
CCC(C)[C@H](NC(=O)NC1CC1)C(=O)O (some centres undefined)	-4	2	i	-1	-5	-26	-4	.
O=C(C[C@@H]1C/C=C/CC[C@@H](Cc2ccc(F)cc2)C(=O)O[C@H](c2ccccc2)CNC1=O)NCCO	0	.	.	7	6	83*	.	0
CCC1(C)CC(c2nc(-c3ccc(OC)cc3)cs2)CCS1 (centres undefined)	-1	1	i	-1	-5	4	7	-7
COc1ccc(CCN2CC(C(=O)NCCc3cnn(C)c3)CCC2=O)cc1 (centres undefined)	-18	6	i	3	5	-3	4	-3
O=C(Nc1ccccc1)Nc1ccc2nnsc2c1	-4	3	i	5	-7	-24	-2	26
COc1ccc(C(=O)NCc2nnc(SCC(=O)N3CCCC3)o2)cc1OC	-18	13	i	1	4	9	0	-8
Cc1ccc(-n2cc(CNCCn3nc(C)cc3C)c(-c3ccc(F)cc3)n2)cc1	-28	-1	i	-8	-9	20	-8	10
CN(c1ccccc1)S(=O)(=O)c1ccc(C(=O)Nc2nnc(C3CC3)s2)cc1	.	-1	i	0	-7	-5	-4	-7
CCC(=O)N1CCN(c2ccc(NC(=O)c3c(F)c(F)c(OC)c(F)c3F)cc2)CC1	-18	-1	i	5	-2	9	1	16
Cc1cc(NC(=O)CSCC(=O)N(C)Cc2ccc(Cl)c(Cl)c2)no1	4	55*	i	-2	2	7	29	1	eIF4H FP inh retest=45;PABP polyA inh retest=62*
COC(=O)C1=C(C)NC(C)=C(C(=O)OC)C1c1ccc(C)o1	-7	-10	i	3	0	-9	-7	-5
COc1ccc(C(CNC(=O)c2ccc(S(=O)(=O)Nc3ccccc3C)cc2)N2CCOCC2)cc1 (centres undefined)	-11	.	i	-1	0	0	.	5
COc1ccc(/C=C/c2cc(C(=O)O)c3ccccc3n2)cc1	-58	?	i	-1	-1	22	?	4

This is a subset, so the mix of outcomes need not match the whole.
